Tgondii IFNg: T. gondii growth inhibition with IFN-gamma, primary screen, cell-based; Toxoplasma gondii growth in IFN-gamma-treated host cells; stronger effect = lower value; reference of the scale not given here; activity change, negative = inhibition, %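 (about 20 µM by stock and volumes)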; actives 3.8% (n = 69,000); AID 1259416, 2018;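 active = below -70%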;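 also: host cells are HeLa cells infected with Toxoplasma gondii; parasite growth read as luciferase light; one replicate is shown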
Starred values were filed as active, the others as inactive; & = joins results of further samples. This is a subset; the hit share may differ from the screen's.

SMILES	Tgondii IFNg
CN(C)c1ccc(C(CN)c2c[nH]c3ccccc23)cc1 (stereo not given)	268.6
O=C(O)[C@H]1C[C@@H](C(=O)N2CCCC2)CN(C/C=C/c2ccccc2)C1	-0.6
Cn1c(=O)cc(C(=O)Nc2ccc3c(c2)ncn3C2CCCCC2)[nH]c1=O	-2.3
CCOC(=O)CSC1=Nc2ccccc2C2=NC(CC(=O)NCCc3ccccc3)C(=O)N12 (stereo not given)	24.7
Cc1cccc(-n2ncc3c(NCCCn4ccnc4)ncnc32)c1	58.2
CCCN(CCC)C(=O)c1cc2cccnc2n(Cc2ccc(F)cc2)c1=O	6.0
CNC(=O)C1CC2CN(CCc3ccccc3)CC1O2 (stereo not given)	-24.9
O=C1CC2C(CCN2Cc2cccc(F)c2)N1CCN1CCOCC1 (stereo not given)	-50.7
Cc1cccc(NC(=O)Nc2ccc(-c3nc(-c4cc(C)ccc4C)co3)cc2)c1	-22.4
Cc1ccc(C2(O)CCN(C(=O)c3ccc(=O)[nH]n3)CC2)nc1	-0.6
O=S(=O)(Nc1ccc(-c2cc3cc(Cl)ccc3o2)cc1)c1ccccc1	-52.5
Cc1noc(C)c1NC(=O)N(C)C[C@@H]1OCc2cn(nn2)CCCC(=O)N([C@@H](C)CO)C[C@@H]1C	152.8
Cc1noc(C)c1S(=O)(=O)N1CCOC(c2cc(C(=O)N(C)C)c3ccccc3n2)C1 (stereo not given)	7.9
Cn1c2c(c3cc(-c4cccc5c4CCNC5)ccc31)CCCC2=O	-81.1*
Cc1nc(C(=O)N2CCOC(C(=O)O)C2)co1 (stereo not given)	-6.8
COc1nc(C)c(CC(=O)N2Cc3ccccc3CC2C2CCOCC2)c(OC)n1 (stereo not given)	-39.4
Cc1cc2c(cc1CN(C)Cc1ccccc1N1CCOCC1)n(C)c(=O)n2C	4.4
CCN(CC)c1ncnc2c1CCN(CCN1CCCC1)CC2	-4.0
O=S(=O)(Cc1nc(-c2ccc(Cl)s2)cs1)c1cccs1	75.9
COc1cc(NC(=O)C2CC(C)=C(C)CC2C(=O)O)cc(OC)c1 (stereo not given)	14.9

A few values from the list.
Cc1cccc(NC(=O)Nc2ccc(-c3nc(-c4cc(C)ccc4C)co3)cc2)c1 – Tgondii IFNg: -22.4
COc1cc(NC(=O)C2CC(C)=C(C)CC2C(=O)O)cc(OC)c1 (stereo not given) – Tgondii IFNg: 14.9
CN(C)c1ccc(C(CN)c2c[nH]c3ccccc23)cc1 (stereo not given) – Tgondii IFNg: 268.6
Cn1c2c(c3cc(-c4cccc5c4CCNC5)ccc31)CCCC2=O – Tgondii IFNg: -81.1*
Cc1cccc(-n2ncc3c(NCCCn4ccnc4)ncnc32)c1 – Tgondii IFNg: 58.2

(more compounds)
SMILES	Tgondii IFNg
CCc1ccc(Nc2nc(C(=O)NCc3ccc(C)o3)nc3ccccc23)cc1	-38.5
O=C1C[C@H]2CC[C@@H](CN1)N2c1ccc(C(F)(F)F)cn1	-2.9
CC(=O)SCCC(=O)N1C(C)CCCC1C(=O)O (stereo not given)	16.0
CC1(C)CC(NC(=O)c2ccco2)CC(C)(C)N1	-9.4
CN1CCN(c2nccc(CN3CC4CCCC(O)(c5ccc(F)cc5)C4C3)n2)CC1 (stereo not given)	-59.6
Cc1ccc(C)c(-c2[nH]ncc2CN(C)Cc2snnc2C)c1	-15.7
Cc1cnc(N2CCCC3(CC(Oc4cccnc4)CO3)C2)nc1 (stereo not given)	-1.3
O=C(C1CCCO1)N1CCC2(CC1)Nc1cccnc1NC2=NC1CCCC1 (stereo not given)	29.2
O=c1oc2ccccc2cc1-c1csc(-c2ccc(Br)cc2)n1	3.2
O=C(O)CN1CCC(N2CCCC(O)C2)CC1 (stereo not given)	7.8
Cc1csc(-c2cc(S(=O)(=O)NCCCN3CCC(C)CC3)c(C)s2)n1	-11.4
CN1CC2(CCCN(C(=O)c3cccc4c3NCCC4)CC2)OC1=O (stereo not given)	9.8
CCn1ncc(Cl)c1C(=O)N1CCc2c(c(C(=O)O)nn2CC(C)C)C1	7.2
O=C(O)c1ccccc1S	22.5
CC(=O)NCCC1CCCCN1C(=O)Nc1ccccc1-c1ccccc1 (stereo not given)	11.0
CN(C)CCn1c2c(ccc1=O)CCN(Cc1nccs1)CC2	6.6
COc1ccc2[nH]cc(C(=O)NCC3(c4ccc(C)cc4)CCOCC3)c2c1	-18.8
Fc1ccccc1CNc1nc(-c2nnc(-c3ccccc3)o2)nc2ccccc12	-75.8*
CC(=O)Oc1c(C)cccc1C(=O)O	15.6
CSc1ccc(C(=O)N2CC(=O)N(C3CCCCC3)CC(OCc3ccccn3)C2)cc1 (stereo not given)	-3.9
CC(=O)Nc1ccc(S(=O)(=O)N2CCN(C(=O)Cc3ccccc3)CC2)cc1	-66.0
COc1ccc(-c2nc(CN(c3ccc(C)cc3)S(=O)(=O)c3cccs3)c(C)o2)cc1OC	1.1
Cc1nc2c(C(=O)N3CCOC(C(F)(F)F)C3)cccc2[nH]1 (stereo not given)	-0.9
CC(C)NC(=O)C1CCN(C2CCN(C(=O)CCCc3cn[nH]c3)CC2)CC1	6.1
CNC(=O)[C@]12CCC3(CCN(Cc4ccc(C)o4)CC3)[C@H]1CN(C(C)=O)C2	-19.9
CC(C)CC(=O)Nc1ccc2c(c1)CCC(=O)N2CC(C)C	-14.6
CC(=O)c1ccc(O)c(C(N)=O)c1	10.6
COc1cccc(NC(=O)Nc2ccc(-c3nc(-c4ccc(C)cc4C)co3)cc2)c1	2.4
CCC(C(=O)N1CSC[C@@H]1C(=O)NCCc1csc(-c2ccccc2)n1)c1ccccc1 (stereo not given in full)	3.7
Cn1cnc(S(=O)(=O)N2C[C@H](O)COC[C@@H]3O[C@@H](CC(=O)NCc4cccc(F)c4)CC[C@H]32)c1	13.0
CCOc1ccccc1NC(=O)Cn1ncc2c(N3CCC(C)CC3)ncnc21	-2.5
Cc1cc(S(=O)(=O)c2ccc(Cl)cc2)sc1C(=O)NCC(O)c1ccccc1 (stereo not given)	-32.2
Cc1oc(C2CCN(C(=O)Nc3cccc(Cl)c3)CC2)nc1C(=O)N1CCCC1	1.6
O=C(C[C@@H]1CC[C@H]2[C@@H](COC[C@@H](O)CN2S(=O)(=O)c2cccc(F)c2)O1)NCc1ccncn1	-15.4
Cc1cc(NC(=O)C(C)n2cncn2)ccc1NC(=O)C(C)(C)C (stereo not given)	-68.3
COCCN=C1Nc2ccccc2NC12CCCN(C(=O)c1cc(Cl)ccc1OC)C2 (stereo not given)	48.5
CC(C)NC(=O)N1CCCC2(CC(Nc3nccs3)CO2)C1 (stereo not given)	-1.2
Cc1nc(-c2cc(NCc3ccccn3)nc3[nH]ccc23)cc(C(C)C)n1	125.3
Cc1nc(CCNC(=O)C2CCN(S(=O)(=O)c3cc(F)ccc3F)CC2)cs1	20.8
O=C(c1cncc(NS(=O)(=O)c2ccc(Cl)cc2)c1)N1CCN(Cc2ccc3c(c2)OCO3)CC1	-13.0

Brought forward from above: 3 entries; new compounds follow.
SMILES	Tgondii IFNg
Cc1nc(-c2cc(NCc3ccccn3)nc3[nH]ccc23)cc(C(C)C)n1	125.3
Cc1nc(CCNC(=O)C2CCN(S(=O)(=O)c3cc(F)ccc3F)CC2)cs1	20.8
O=C(c1cncc(NS(=O)(=O)c2ccc(Cl)cc2)c1)N1CCN(Cc2ccc3c(c2)OCO3)CC1	-13.0
CO[C@H]1CC[C@@H]2CCOc3ccc(C#N)cc3C(=O)N(C)C[C@@H](c3ccccc3)CC(=O)N(C)C[C@@H]1O2	-33.0
CCc1cc(Cl)c(OC)c(C(=O)NCC2CCCN2CC)c1O (stereo not given)	-19.3
COc1ccc(-c2nc3cnccn3c2NCC2CCCO2)c(OC)c1 (stereo not given)	40.6
CC1CCN(S(=O)(=O)c2ccc3c(c2)CCC(=O)N3CC(=O)N2CCOCC2)CC1	26.3
O=C(CCc1cc(Cl)no1)N1CCC[C@H](Cn2nnc(-c3ccccn3)n2)C1	-19.3
O=C(CCc1nc(-c2cccnc2)no1)NCCc1c[nH]c2ccccc12	118.1
Cc1nc(CN2CC3(CCN(c4ccncn4)C3)CC2=O)cs1 (stereo not given)	4.3
CC(=O)N1CCCCN2[C@H](CO)[C@H](c3ccc(-c4ccccc4)cc3)[C@@H]2C1	12.2
COc1ccc(NC(=O)N2CCC3(CC2)CN(C(=O)c2cccnc2)[C@H](CO)c2[nH]c4cc(OC)ccc4c23)cc1	418.1
NCCc1nc(NCc2ccccc2-n2cncn2)c2ccccc2n1	-6.6
O=C(c1cc2n(n1)CCN(Cc1ccc3nonc3c1)C2)N1CCCC1	-3.0
CC(=O)Oc1ccc(NC(=O)CC2Nc3ccccc3NC2=O)cc1 (stereo not given)	4.3
Cc1cccc(-c2ccc([C@@H]3[C@@H](CO)N4C(=O)CN(C(=O)c5ccc6c(c5)OCO6)C[C@H]34)cc2)c1	-43.3
CN1CCn2c(-c3cnn(C)c3)cnc2C12CCN(S(=O)(=O)C1CC1)CC2	-7.0
CCCNC(=O)CCCc1nc(-c2ccc(OC)cc2)no1	-16.3
CN1CCN(C(=O)c2cc3n(n2)CCN(Cc2nccn2C)C3)CC1	-6.0
CCCCCCN(CCCCCC)C(=O)Cc1c(-c2ccc(Cl)cc2)[nH]c2ccc(Cl)cc12	4.8&21.2
CC(C)(C)C(=O)Nc1cccc(-c2ncon2)c1	25.1
Cc1nn(C)cc1NC(=O)C[C@H]1CC[C@H]2[C@@H](COc3ccc(NC(=O)C4CCOCC4)cc3C(=O)N2C)O1	8.2
O=C(O)Cc1ccc(CN2CC3(CCNCC3)CC2C(=O)O)cc1 (stereo not given)	-3.8
CC(C)CCN1[C@@H]2CCN(C(=O)c3ccc[nH]3)CC[C@@H]2Oc2ccccc2S1(=O)=O	-36.5
C#CC(C)(C)NC(=O)Cc1csc(SCC)n1	4.3
CCOC[C@H]1CCC2C(CCN2C(=O)NCc2cccc(F)c2)O1 (stereo not given in full)	-0.8
Nc1c(C(=O)c2ccccc2)oc2ccccc12	70.8
CO[C@@H]1CC[C@@H]2CCOc3c(C#N)cccc3C(=O)N(C)C[C@@H](OC)[C@@H](C)C(=O)N(C)C[C@H]1O2	24.4
CC[C@H]1C/C=C\C[C@@H](c2ccccc2)NC(=O)CCC(=O)N1	-11.6
C[C@H](CO)N1C[C@H](C)[C@H](CN(C)Cc2ccccc2)Oc2ccc(NC(=O)Nc3ccccc3)cc2C1=O	3.4
COCC(=O)Nc1cccc(-c2ccc3c(c2)OCO3)c1	37.8
Cc1nn(C)cc1-c1csc(NC(=O)Cc2csc(-c3ccccc3)n2)n1	26.4
C[C@@H]1CN([C@H](C)CO)C(=O)c2ccccc2-c2ccccc2CO[C@@H]1CN(C)C(=O)Nc1cccc(C(F)(F)F)c1	-6.2
CC(Cc1cnccn1)NC(=O)c1cn(C/C=C/c2ccccc2)nn1 (stereo not given)	3.5
CCOc1ccccc1-c1ccccc1NC(=O)c1cc(-c2ccc(F)cc2)no1	-8.9
O=C(C[C@H]1CC[C@@H]2[C@H](COC[C@@H](O)CN2S(=O)(=O)c2ccc(F)cc2)O1)NCCN1CCCCC1	32.0
CN(C)C(=O)C[C@H]1CC[C@@H]2[C@H](COC[C@H](O)CN2S(=O)(=O)c2ccccc2Cl)O1	5.5
O=C(COc1ccccc1)N1CCC2(CC1)Nc1cc(F)ccc1-n1cccc12	51.8
COc1cc(NC(=O)CSc2nnc(C)s2)c(C(=O)O)cc1OC	72.8
CC(C)C1N(C(=O)CN2CCN(C)CC2)CCCN1S(=O)(=O)c1ccccc1 (stereo not given)	23.3
CCCOc1ccc(S(=O)(=O)N2CCN(CCO)CC2)cc1-c1nc2c(CCC)cn(CC)c2c(=O)[nH]1	1.0
Cc1cccc(S(=O)(=O)N2CCc3c(CNc4ncccn4)nn(C)c3C2)c1	2.4
COc1ccc(OC)c(C(=O)CSc2nnc(-c3cccs3)o2)c1	1.4
CN(C)C(=O)[C@@H]1C[C@@H]2OCC[C@@H]2N(CCOCc2ccccc2)C1	2.0
Cn1cnc(S(=O)(=O)N2CC[C@@H](c3ccc4ccccc4c3)[C@H](O)C2)c1	-1.8
Cc1c(Cl)cccc1NC(=O)Cn1ncc2c(N3CCOCC3)ncnc21	8.3
Cn1c(=O)c2c3nc4ccccc4cc3c(=O)n(C)c2n(C)c1=O	-12.6
CC(C)(C)C1CCc2[nH]nc(C(=O)Nc3cccc(Cn4cncn4)c3)c2C1 (stereo not given)	0.5
CC1CCN(S(=O)(=O)c2ccc3c(c2)CCC(=O)N3CC(=O)N(Cc2ccccc2)C(C)C)CC1	-80.8*
COc1ccc2c(c1)NC1(CCN(C(=O)Nc3cccc(C)c3)CC1)c1cccn1-2	241.9
CCCNC(=O)c1cc2c(c3ccccc3n2C)n1C(=O)N(C)C	8.2
CCN1C[C@@H]2C[C@H](C(=O)Nc3ccc4c(c3)OCO4)[C@@H](C1)O2	19.9
COc1ccc(CNC(=O)CSc2nnc(NC(=O)C3CCC3)s2)cc1	-0.7
Cc1ccccc1-c1ccc(C2[C@@H]3CN(Cc4cocn4)C[C@H]2N3)cc1 (stereo not given in full)	28.9&-48.0
Cc1ccc2ncccc2c1CN1CCN(Cc2cccc(F)c2)CC1	-50.3
O=C(Cn1ncc2c(N3CCOCC3)ncnc21)N1CCN(c2ccccn2)CC1	150.2
Cc1ccc(CN2C[C@H]3CN(c4cnn(C)c4)C(=O)[C@H]3C2)s1	-3.3
Cc1ccc(CNC2CCc3[nH]c(=O)ccc3C2)o1 (stereo not given)	1.7
CC1CCN(c2ncnc3c2cnn3CC(=O)NCc2ccccc2)CC1	-101.4*

Part of the list above in order of molecular weight, lowest first.
SMILES	Tgondii IFNg
Cc1nc(C(=O)N2CCOC(C(=O)O)C2)co1 (stereo not given)	-6.8
CC(=O)Oc1ccc(NC(=O)CC2Nc3ccccc3NC2=O)cc1 (stereo not given)	4.3
O=C1CC2C(CCN2Cc2cccc(F)c2)N1CCN1CCOCC1 (stereo not given)	-50.7
CC(=O)N1CCCCN2[C@H](CO)[C@H](c3ccc(-c4ccccc4)cc3)[C@@H]2C1	12.2
Cc1nc(CCNC(=O)C2CCN(S(=O)(=O)c3cc(F)ccc3F)CC2)cs1	20.8
